FGF22 binding: shifts melting point of recombinant human FGF22; calls only at 9.99 µM; AID 651658; recombinant FGF22 thermal shift, SYPRO orange fluorescence; percent of sucrose octasulfate shift, DMSO zero; Q9HCT0; 1.5% of 340,000 active;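 active = melting point raised past a set limit in the mean and every replicate; inconclusive = no clear call; three in four hits are not shown here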
Target sequence (Q9HCT0 whole entry, looked up): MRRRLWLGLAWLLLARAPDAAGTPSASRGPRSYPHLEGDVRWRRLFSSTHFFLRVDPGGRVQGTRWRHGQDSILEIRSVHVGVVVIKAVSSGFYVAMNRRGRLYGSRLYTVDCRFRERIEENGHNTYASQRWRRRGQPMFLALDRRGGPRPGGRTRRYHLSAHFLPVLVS
HNF4A DNA FP: change in binding of human HNF4 alpha to DNA | HNF4a-FITC DNA binding, fluorescence polarization, 1 h | 0.3% of 360,000 active | AID 1224865 | activity change, % at 10 µM | P41235; in the data active = activity change above about 30%, passing the limit was not always enough;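 also: controls were the assay level and a saturating level of protein; the project sought stronger binding though the title names inhibitors; some compounds called inactive have numbers as strong as hits; positive values seem to mean higher polarization but the record does not say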
Target sequence (P41235 whole entry, looked up): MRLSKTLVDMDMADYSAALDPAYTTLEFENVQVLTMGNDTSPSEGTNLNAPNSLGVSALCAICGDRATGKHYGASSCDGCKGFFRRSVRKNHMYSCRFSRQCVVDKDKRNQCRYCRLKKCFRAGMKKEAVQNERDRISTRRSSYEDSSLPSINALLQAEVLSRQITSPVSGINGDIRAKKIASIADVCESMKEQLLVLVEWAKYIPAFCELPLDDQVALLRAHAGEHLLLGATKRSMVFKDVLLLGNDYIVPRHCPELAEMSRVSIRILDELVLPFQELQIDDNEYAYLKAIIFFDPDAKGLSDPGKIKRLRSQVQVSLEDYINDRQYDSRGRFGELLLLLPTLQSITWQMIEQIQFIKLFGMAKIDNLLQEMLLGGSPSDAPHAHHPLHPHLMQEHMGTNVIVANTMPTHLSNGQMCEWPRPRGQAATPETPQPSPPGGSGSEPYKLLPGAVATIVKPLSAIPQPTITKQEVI
UCH37 inh: inhibitors of human deubiquitinating enzyme UCH37 | Q9Y5K5 | purified proteasome/UCH37, Ub-AMC cleavage fluorescence | inhibition, % (no concentration beside the values) | 0.33% of 330,000 active;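 active = mean of two replicates above 20%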;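 also: 0% = compound-free wells with enzyme and 100% = wells lacking proteasome; stock transfer was 100 nL into about 20 µL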
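Test system – human UCH37 enzyme supplied as purified proteasome complex · Incubation – 30 min preincubation with enzyme, 25 min cleavage at room temperature · Detection – AMC fluorescence from Ub-AMC cleavage, excitation 355 nm, emission 460 nm · Benchmarks – no-proteasome wells (full inhibition) and compound-free wells (no inhibition)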
rRNA inh HTS: selective bacterial rRNA inhibition in E. coli | E. coli WT GFP vs humanized-ribosome RFP mutants, fluorescence, 24 h; hits give low values; DMSO median 0, no signal -100 | GFP signal change (wild-type ribosome), % (test concentration not listed) | 1.6% of 350,000 active | AID 720706;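 active = significant combined selectivity score with lowered wild-type GFP, culture density cut under 30%, mutant RFP and density less affected; inactive = any of these conditions unmet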; also: one replicate is shown; some compounds called inactive have numbers as strong as hits
Ecoli growth: blocks Escherichia coli growth. OD600, 23 h; hits give low values. OD600 absorbance (test concentration not listed). 0.21% of 330,000 active. AID 1053175;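 active = OD600 absorbance below the run mean of sample wells minus 3.6 SD, in any replicate, cut at about 0.56 in these data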;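 also: stock transfer was 300 nL into about 60 µL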
B2AR ag: activates human beta-2 adrenergic receptor causing internalization; P07550; Am2.2-beta2AR cells, FAP receptor internalization, flow cytometry; reference of the scale not given here; response, % (test concentration not listed); 0.43% of 340,000 active; AID 504454;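 active = response above a set limit, near 3 SD of response in nonfluorescent compounds, cut at about 42% in these data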;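 also: stock transfer was 100 nL into about 11 µL; a reference agonist was the positive control; negative values mostly stem from fluorescent compounds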
Target sequence (P07550 whole entry, looked up): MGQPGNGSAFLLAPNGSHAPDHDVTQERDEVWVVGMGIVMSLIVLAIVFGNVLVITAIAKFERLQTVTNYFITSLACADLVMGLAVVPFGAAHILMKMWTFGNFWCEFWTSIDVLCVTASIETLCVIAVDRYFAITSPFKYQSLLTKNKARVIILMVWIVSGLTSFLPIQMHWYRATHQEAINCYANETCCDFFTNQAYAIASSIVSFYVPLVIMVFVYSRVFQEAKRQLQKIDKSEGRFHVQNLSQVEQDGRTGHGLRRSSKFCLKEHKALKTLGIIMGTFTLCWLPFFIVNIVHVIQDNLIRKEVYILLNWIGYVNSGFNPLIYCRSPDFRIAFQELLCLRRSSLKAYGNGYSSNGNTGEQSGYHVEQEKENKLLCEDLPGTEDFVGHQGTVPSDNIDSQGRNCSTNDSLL
ALR inh: human ALR oxidase inhibition via reduced H2O2; P55789; purified ALR, DTT oxidation, H2O2 HRP-luminol luminescence; inhibition, % (no concentration beside the values); 3.8% of 290,000 active; AID 485317;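 active = mean and each replicate at 75% or more; inconclusive = only one of the two met; inactive = neither met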;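 also: stock transfer was 7.5 nL into about 7.5 µL; 0% = neutral wells and 100% = wells with inactivated enzyme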
rRNA inh HTS OD600: further read-out of rRNA inh HTS, marked with its call; OD600 change, %; measured here: OD600 growth;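 optical density of the mix in the first replicate; 0 = DMSO median and -100 = no signal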
rRNA inh HTS RFP: also measured in rRNA inh HTS; calls as there; RFP signal change, %; measured here: RFP humanized mutant strains;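 first replicate; 0 = DMSO median and -100 = no signal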
Numbers without * were called inactive; i = inactive; ? = inconclusive; · = not tested or not shown. The list is partial; the hit share may differ from the screen's.

SMILES	FGF22 binding	HNF4A DNA FP	UCH37 inh	rRNA inh HTS	rRNA inh HTS OD600	rRNA inh HTS RFP	Ecoli growth	B2AR ag	ALR inh
COC(=O)C1=C(c2cccc(OCc3ccccc3)c2)C[C@@H]2CC[C@H]1N2C(=O)NCCCOC(C)C	i	-9.2	1.5	-18	-34	-2.6	·	-11	-6
O=C(Cn1c(=O)n(CC2CS2)c2ccccc21)N1CCCCC1 (centres undefined)	i	-3.7	1.7	9	9	1.1	0.64	-5	-16
CC12C=CC(=O)C=C1CCC1C2C(O)CC2(C)C1CCC2(C)O (centres undefined)	i	6.5	0.3	3	11	4.3	0.71	-9	·
CC(=O)N1CN2CN(C(C)=O)CC(C(=O)c3ccccc3)(C2)C1	·	2.7	3.1	·	·	·	0.68	2	-16
CCCCn1c(O)c(C=NCc2ccc3c(c2)OCO3)c(=O)[nH]c1=O	i	0.4	1.4	11	8	-0.3	0.69	2	-9
Nc1ccc2c(c1)oc1ccccc12	·	1.3	-13	·	·	·	0.6	4	-8
COc1cc(C2SCC(=O)Nc3c2c(=O)[nH]n3C2CCCCCC2)cc(OC)c1OC (centres undefined)	·	-5.5	0.7	·	·	·	0.71	-3	-2
COc1ccc(CCn2c(O)c(C=Nc3ccc(NC(C)=O)cc3)c(=O)[nH]c2=O)cc1OC	·	4.8	-82	38	20	5.0	0.72	-4	16
CC[N+](C)(CC)CCCOC(=O)C(O)(c1ccccc1)C1CCCCC1 (centres undefined)	·	-0.7	2.7	·	·	·	0.73	-7	-4
CC1CCN(CC#CCOc2ccc(Cl)cc2)CC1	i	0.5	3.7	-6	-10	0.6	0.62	7	-1
COC(=O)C1=C(c2ccc(F)cc2OCc2ccccc2)C[C@@H]2CC[C@H]1N2C(=O)NCc1ccccc1	i	1.3	2.5	-10	-13	0.5	·	0	-7
CCNc1nc(NC(C)(C)C)nc(SC)n1	i	-1.1	2.2	·	·	·	0.71	-9	-16
O=[N+]([O-])c1ccc(N2CCNCC2)c(Cl)c1	i	-0.7	6.4	2	-2	1.2	0.68	4	-16
COc1ccc(CNCCc2ccc(Cl)cc2)c(OC)c1OC	i	1.5	2.2	-2	-9	-2.9	0.68	0	-3
O=C1CN=C(c2ccccc2)c2ccccc2N1	i	0.8	6.0	2	-6	-0.9	0.68	0	·
O=c1[nH]c(=O)n(Cc2ccco2)c(O)c1C=NC1CC1	·	-1.1	1.2	·	·	·	0.72	4	0
CNC(=O)Oc1ccc(N(C)C)cc1C(C)C	i	1.3	·	4	10	-0.9	·	1	92*
CCOC(=O)[C@]12Cc3cc(OC)c(OC)cc3[C@H]1N(Cc1ccccc1)C(=O)c1ccccc12	i	-4.9	1.3	11	9	-0.8	·	-4	·
CC1(C)CN=C(Nc2nc3ccccc3s2)S1	·	-1.1	2.4	·	·	·	0.71	-1	8
COC(=O)C1=Nc2ccccc2/C1=C\c1c(O)n(C)c(=O)n(C)c1=O	i	3.3	2.8	0	-5	59	0.64	12	21
O=C(Oc1ccc([N+](=O)[O-])cc1)N1CCC(N2CCCCC2)CC1	i	-1.8	4.1	3	10	-7.7	0.7	-3	-2
COc1ccc(C2CN(C)CC2C(=O)c2ccc(F)cc2)cc1Cl (centres undefined)	i	2.2	3.3	-20	-17	1.6	0.68	4	0
Oc1ccc2c3c1OC1c4oc5ccccc5c4C[C@@]4(O)[C@@H](C2)N(CC2CC2)CC[C@]314 (some centres undefined)	i	1.1	2.8	-20*	-5.8*	3.5*	0.7	6	·
COC(=O)C1=C(c2cccc(Cl)c2)C[C@@H]2CC[C@H]1N2C(=O)NCC1CC1	i	-0.2	1.4	-4	-4	-2.5	·	0	-7

In a second layout: three of the compounds above
Every second line gives: FGF22 binding	HNF4A DNA FP	UCH37 inh	rRNA inh HTS	rRNA inh HTS OD600	rRNA inh HTS RFP	Ecoli growth	B2AR ag	ALR inh
- CC1(C)CN=C(Nc2nc3ccccc3s2)S1
    ·	-1.1	2.4	·	·	·	0.71	-1	8
- COc1ccc(C2CN(C)CC2C(=O)c2ccc(F)cc2)cc1Cl (centres undefined)
    i	2.2	3.3	-20	-17	1.6	0.68	4	0
- O=[N+]([O-])c1ccc(N2CCNCC2)c(Cl)c1
    i	-0.7	6.4	2	-2	1.2	0.68	4	-16

More records follow:
SMILES	FGF22 binding	HNF4A DNA FP	UCH37 inh	rRNA inh HTS	rRNA inh HTS OD600	rRNA inh HTS RFP	Ecoli growth	B2AR ag	ALR inh
CC(C(=O)N1CCC2(CC1)OCCO2)C1Sc2ccccc2NC1=O (centres undefined)	·	-0.4	0.1	·	·	·	0.65	-3	-1
CC(Cc1ccccc1)NC(=O)Cc1ccc(N(C)C)cc1 (centres undefined)	i	1.5	0.8	4	-2	1.1	0.72	4	99*
CCOC(=O)[C@]12Cc3cc(Cl)ccc3[C@H]1N(Cc1ccccc1)C(=O)c1ccccc12	i	1.4	1.1	-1	6	-4.4	·	8	·
CN(C)C1=C(C#N)C(c2ccccc2)=NP(N(C)C)(N(C)C)=N1	·	-1.3	1.9	·	·	·	0.7	2	-3
CN1CCN(c2ccc([N+](=O)[O-])c(NCc3ccco3)c2)CC1	·	-1.5	11	·	·	·	0.71	-5	-8
C=CCn1c(O)c(C(C)=NCc2ccc3c(c2)OCO3)c(=O)[nH]c1=O	i	5.9	2.7	8	7	0.8	0.66	5	1
CN1C(=O)C(=Cc2ccccc2OCc2ccccc2Cl)C(=O)N(C)C1=O	·	1.4	3.9	·	·	·	0.7	13	34
COc1ccc(C2NCc3ccc4c(c3-n3cccc32)OCO4)cc1OC (centres undefined)	·	0.4	5.3	·	·	·	0.76	5	·
CCOC(=O)c1cccc([P+](=O)O)c1	·	6.5	0.9	·	·	·	0.72	-1	·
C[N+]1(C)C2CCC1CC(OC(=O)c1c[nH]c3ccccc13)C2 (centres undefined)	i	-0.1	3.2	·	·	·	0.68	-8	-1
COc1ccc(NP2(=O)OCC(C)(N)CO2)cc1 (centres undefined)	i	-0.2	·	9	10	5.5	·	-1	·
COc1ccc(-c2ccc3c(c2)CN(C(=O)NC2CCCCC2)Cc2cnnn2-3)cc1	i	3.8	·	-6	-10	-2.0	·	·	·
O=C(C[N+]12CCC(CC1)C(OC(=O)c1ccccc1)C2)c1ccc([N+](=O)[O-])cc1 (centres undefined)	i	-2.1	3.6	-9	-1	-3.0	0.6	0	-35
Cc1cccc(NC2=NCCCS2)c1C	·	2.9	3.6	·	·	·	0.67	6	-1
c1ccc2c(CN3CCN(C4CCCCC4)CC3)c[nH]c2c1	·	3.4	-4.5	·	·	·	0.75	15	-7
CCc1ccc(/C=C(/C#N)C(N)=S)cc1	·	-1.9	0.0	·	·	·	0.68	-12	55
CCN(CC)C(=O)c1ccc(NC(=O)c2sccc2-c2ccccc2)cc1	i	-3.6	2.3	-4	-7	1.1	0.68	-15	-2
COc1ccc(-n2c(-c3ccccc3Br)nc3ccccc3c2=O)cc1	i	0.8	1.0	-8	-6	2.7	0.67	-1	2
C/C=C1\CN2[C@H]3C[C@@]45c6ccccc6N(C)[C@H]4[C@@H]2CC1C3[C@H]5O (some centres undefined)	i	-1.6	0.8	6	-2	3.1	0.72	15	-4
O=C(c1cc(C(=O)NCc2ccc(Cl)cc2)c(=O)n(Cc2ccc(Cl)cc2)c1)c1cc(F)ccc1O	i	-0.6	3.4	6	17	5.5	0.7	-11	-25
CCc1cc(=O)oc2cc(C)cc(OCC(=O)N3CCC(C(=O)O)(c4ccccc4)CC3)c12	i	1.0	-117	·	·	·	0.72	1	-3
CCOC(=O)c1ccc(N=Cc2c(O)n(-c3ccccc3F)c(=S)[nH]c2=O)cc1	i	2.1	1.3	2	4	-1.8	0.64	0	-15
CN(C)/C=C1/C(=O)NC(=O)N(CCNc2ncc(C(F)(F)F)cc2Cl)C1=O	i	17	2.9	4	2	2.4	0.69	25	7
CCc1ccc(C2=NN(CCC(=O)N3CCC4(CC3)OCCO4)C(=O)CC2)cc1	i	3.7	1.5	8	6	6.3	0.67	-4	-2

By substructure, the entries above with fluorine
SMILES	FGF22 binding	HNF4A DNA FP	UCH37 inh	rRNA inh HTS	rRNA inh HTS OD600	rRNA inh HTS RFP	Ecoli growth	B2AR ag	ALR inh
COC(=O)C1=C(c2ccc(F)cc2OCc2ccccc2)C[C@@H]2CC[C@H]1N2C(=O)NCc1ccccc1	i	1.3	2.5	-10	-13	0.5	·	0	-7
COc1ccc(C2CN(C)CC2C(=O)c2ccc(F)cc2)cc1Cl (centres undefined)	i	2.2	3.3	-20	-17	1.6	0.68	4	0
O=C(c1cc(C(=O)NCc2ccc(Cl)cc2)c(=O)n(Cc2ccc(Cl)cc2)c1)c1cc(F)ccc1O	i	-0.6	3.4	6	17	5.5	0.7	-11	-25
CCOC(=O)c1ccc(N=Cc2c(O)n(-c3ccccc3F)c(=S)[nH]c2=O)cc1	i	2.1	1.3	2	4	-1.8	0.64	0	-15
CN(C)/C=C1/C(=O)NC(=O)N(CCNc2ncc(C(F)(F)F)cc2Cl)C1=O	i	17	2.9	4	2	2.4	0.69	25	7

(next part)
SMILES	FGF22 binding	HNF4A DNA FP	UCH37 inh	rRNA inh HTS	rRNA inh HTS OD600	rRNA inh HTS RFP	Ecoli growth	B2AR ag	ALR inh
C=CCN1Cc2ccccc2-n2nncc2C1	i	-3.7	·	11	28	-1.5	·	·	·
COC(=O)C(O)(c1ccc(N(C)C(=O)c2cccs2)cc1)C(F)(F)F (centres undefined)	i	1.7	6.0	-20	-21	-2.8	0.69	-13	-3
Cc1ccc(NC(=O)c2cc(-c3ccccc3)n(CCCN3CCOCC3)c2C)cc1	i	6.8	2.3	-9	-3	0.6	0.7	5	2
COC(=O)C1=C(c2ccc(OC)c(OC)c2)C[C@@H]2CC[C@H]1N2C(=O)NCc1cccc2ccccc12	·	-2.1	2.1	·	·	·	·	2	-6
O=[N+]([O-])/C=C/c1c(Cl)cccc1Cl	i	2.4	·	·	·	·	·	27	·
O=C(O)C(Cl)Cl	·	·	3.0	·	·	·	0.71	·	-1
CCC/C(=N\O)c1c[nH]c2ccccc12	·	2.1	·	·	·	·	·	1	?
COc1ccccc1NC(=O)CN(Cc1ccccc1)S(C)(=O)=O	·	6.2	0.9	·	·	·	0.69	-8	-3
O=Cc1c(C(=O)O)n(Cc2ccccc2Cl)c2ccccc12	i	2.5	-0.5	5	8	1.1	0.65	2	·
O=c1[nH]c(O)c(N=Nc2ccc3c(c2)OCCO3)c(=O)[nH]1	i	17	13	26	16	13	0.68	5	-7
CCN(CC)c1ccccc1	i	2.4	-1.5	1	5	-0.8	0.66	0	-3
Cc1sc2c(c1C)C(c1cccs1)=NCC(=O)N2CC(=O)NCc1cccs1	i	-1.0	6.3	-9	-14	5.3	0.69	12	-1
CCC1(CC(C)C)C(=O)NC(=S)NC1=O	i	2.4	4.4	4	2	1.3	0.68	0	·
CN(C)c1ccc(/C=C2\C(=O)NC(=O)N(Cc3ccc(F)cc3)C2=O)cc1	i	2.3	·	11	12	6.2	·	3	·
CC(C)c1ccc(C(c2c(O)c3ccccc3oc2=O)c2c(O)c3ccccc3oc2=O)cc1	i	-3.4	·	3	-44	3.2	·	·	·
O=C(c1cc(-c2cccnc2)nc2ccccc12)N1CCC2(CC1)OCCO2	·	2.5	4.2	·	·	·	0.73	-9	-3
Cn1c(O)c(C=Nc2ccc(Cl)cc2)c(=O)n(C)c1=O	·	1.4	5.4	·	·	·	0.68	-7	-6
Cc1ccc(/C=C2\C(=O)NC(=S)N(c3ccc(F)cc3)C2=O)o1	i	25	2.4	14	10	6.6	0.65	18	0
CCCc1cc(=O)oc2cc(OCC(=O)N3C[C@H]4C[C@@H](C3)c3cccc(=O)n3C4)ccc12	i	-1.4	1.3	·	·	·	0.76	-19	-54
COc1ccc(Br)cc1CN1CCN(C(=O)Cc2ccccc2)CC1	·	1.2	6.1	·	·	·	0.68	1	-3
